# Bioassay records from PubChem BioAssay.
# Sa RN4220 lethal: growth inhibition of S. aureus RN4220, primary screen, OD600. 16 h. inhibition, % (test concentration not listed). 330,000 tested, 0.33% active. AID 1259311, 2017;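 active = z-score of -3 or lower and OD600 up to 0.18 on both plates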;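 also: plate controls were untreated cells for no effect and reference antibiotic for full effect; stock transfer was 100 nL into about 80 µL; one replicate is shown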
# PrP UTR inh: inhibition of PrP 5' UTR reporter expression; 340,000 tested, 0.35% active; AID 488862, 2010; inhibition, % (no concentration beside the values); cell-based PrP 5' UTR mRNA reporter, plate reader;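 active = every replicate at 50% or more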;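 also: 0 = median of the neutral control wells; tested in H4 reporter cells; numbers are from one replicate; inactives centre near -14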
# ugtP null kill: growth inhibition of ugtP-null S. aureus, primary screen, RN4220 ugtP deletion, OD600. 16 h; some inactives read as strong as hits. growth inhibition, % (concentration not given with the values). 330,000 tested, 0.54% active. AID 1259309, 2017;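 active = z-score under -3 and OD600 up to 0.15 on both plates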;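 also: plate controls were untreated wells for no effect and antibiotic for full effect; wells of about 80 µL received 100 nL stock; the first replicate is given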
# Autofluor counter: flagged as autofluorescent in microsphere protease counterscreen. compound autofluorescence counterscreen, microsphere flow cytometry; active compounds read high. fluorescence intensity (no concentration beside the values). 360,000 tested, 3.1% active;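 active = at least 3 SD above the mean of all compounds, about 16000 in these data; inconclusive = too few beads counted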;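 also: 100 nL of 1 mM stock went into each well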
# BJeLR viability: MLPCN primary cell-based screen for lethality selective to Ras in HRASV12 cells; 300,000 tested, 0.17% active; inhibition, % (no concentration beside the values); BJeLR (HRASV12) viability, CellTiter-Glo ATP luminescence, 48 h; reference of the scale not given here;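 active = replicate mean above 50%; inconclusive = above 50% but judged a plate artefact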;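 also: 50 nL library stock added to about 25 µL; numbers are from one replicate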
# Mtb hypoxia inh: PubChem AID 1159583; M. tuberculosis hypoxia-regulated fluorescent reporter, fluorescence; fluorescence inhibition, % (no concentration beside the values); 300,000 tested, 0.1% active;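 active = 35 to 45% if threefold the growth effect, above 45% if 1.5-fold the growth effect; inactive = the rest, general growth blockers included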;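 also: wells of about 50 µL received 100 nL stock; 0% = vehicle wells and 100% = reference inhibitor wells; whole bacteria with a GFP reporter of the hypoxia response; strong numbers were not always called active; many hits fall short of the cut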
# Mtb hypoxia inh growth: further read-out of Mtb hypoxia inh, marked with its call; growth inhibition, %; measured here: M. tuberculosis growth (absorbance);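 0% = vehicle and 100% = reference antibiotic; read after six days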
# Active calls of the source: *; ? = inconclusive; · = not tested or not shown.
SMILES,Sa RN4220 lethal,PrP UTR inh,ugtP null kill,Autofluor counter,BJeLR viability,Mtb hypoxia inh,Mtb hypoxia inh growth
CC(C)(C)NC(=O)CCCSc1nc2ccccc2s1,3.5,-68.9,3.1,4684,11.1,12.5,13.3
COc1ccc(C(=O)NCC(=O)OCC(=O)Nc2ncc(Cl)cc2Cl)cc1[N+](=O)[O-],-1.6,-3.5,0.6,4023,·,5.9,2.0
C=CCC1(O)CC(c2ccco2)NC(c2ccco2)C1CCC (configuration not stated),5.5,-36.0,0.6,5678,4.1,1.2,4.4
NC(=O)c1ccccc1OCC(=O)Nc1ccc2c(c1)OCCO2,1.2,-41.0,-0.7,10023,·,-12.6,-6.4
O=C(NCc1cccnc1)c1cc(Sc2ccc(F)cc2F)nc2ccccc12,2.8,-9.9,19.4,2487,-5.8,11.4,11.7
COc1ccc(C(=O)CCC(=O)NCCc2ccccc2F)cc1,2.0,-5.1,-0.7,3096,0.5,15.7,-0.1
CC1CCc2c(sc3ncn(Cc4ccc(C(=O)O)cc4)c(=O)c23)C1 (configuration not stated),6.0,-14.1,7.1,2485,3.0,2.7,9.0
Cc1ccc(C(=O)N=c2sccn2C)o1,-2.2,-32.4,-6.6,5542,-2.3,2.8,0.0
COc1ccc(OC)c2sc(NC(=O)C3COc4ccccc4O3)nc12 (configuration not stated),7.1,-10.4,4.0,6260,-1.3,-2.1,-2.0
CCCC(=O)NC(C)c1nc2ccccc2n1CC (configuration not stated),-11.7,-17.6,-1.9,6838,-5.8,0.1,1.0
CC(C)c1ccc(-c2nn(-c3ccccc3)cc2C2C(C#N)=C(N)OC3=C2C(=O)CC(C)(C)C3)cc1 (configuration not stated),-5.5,-23.4,-1.8,9923,-26.1,-0.7,3.6
CCC(C)(C)NC(=O)C(c1ccccn1)N(C(=O)c1csnn1)C1CCCCC1 (configuration not stated),6.7,4.6,9.2,3513,1.2,6.1,5.9
COc1ccc(C(c2nnnn2Cc2ccc(F)cc2)N2CCN(c3ccccc3)CC2)cc1 (configuration not stated),-2.5,-36.1,-7.7,2223,-3.8,·,·
NC(=O)CC(NC(=O)Cc1cccc2ccccc12)c1ccc(NCCc2ccccc2F)c([N+](=O)[O-])c1 (configuration not stated),4.3,-0.2,6.6,3951,-11.0,4.1,4.0
CCOc1ccccc1NC(=O)Nc1c(C)n(-c2ccccc2)c(=O)n1C,-2.9,10.5,0.7,20830*,-9.1,-13.0,1.4
COc1cc(NC(=O)CC(C)=NNC(=O)C2CCCCC2)c(OC)cc1Cl,-0.1,·,5.2,·,·,-11.8,-9.3
COc1ccc(N2CC(C(=O)OCC(=O)c3cccc(OC)c3)CC2=O)cc1 (configuration not stated),6.0,-14.4,-4.0,5988,0.2,8.8,9.0
CCOC(=O)c1ccc(N2CC(O)=C(c3nc4ccccc4c(=O)[nH]3)C2=N)cc1,7.7,-7.9,-16.2,3317,0.5,-0.2,-6.8
Cc1ccnc(NC(=O)CSc2cc(=O)n(C)c3ccccc23)c1,4.9,-20.0,10.7,3566,-4.3,5.1,-5.3
CCOc1cc2c3c(c1)C1(OCCO1)C(=O)N3C(C)(C)CC2C (configuration not stated),1.6,-13.4,2.0,2968,-1.0,·,·
Cc1ccc(NC(=O)Cn2ncc3c([nH]c4ccccc43)c2=O)cc1Cl,8.0,-20.1,1.5,5909,-1.1,4.8,-0.4
CCn1cc(CN2CCc3c([nH]c4ccccc34)C2c2cccc(OC)c2OC)c(C)n1 (configuration not stated),0.6,-22.5,7.4,4703,2.0,-12.5,5.6
CCn1nc(NS(=O)(=O)c2ccc([N+](=O)[O-])cc2)c2cc3ccc(C)cc3nc21,1.8,2.7,-3.9,4930,2.9,8.5,-0.1
Nc1nnc(SCc2nc3scc(-c4ccccc4)c3c(=O)[nH]2)s1,3.5,-16.0,6.7,5736,9.8,1.7,5.4
COc1ccc(-c2nn(-c3ccccc3C)cc2CNCCc2cnc[nH]2)cc1F,-2.2,-33.2,-2.9,2454,-9.9,1.4,12.4
CC(Sc1ccc2nnc(-c3ccc(F)cc3)n2n1)C(=O)O (configuration not stated),-0.6,-11.9,-3.1,4309,-8.1,0.7,1.9
COc1ccc(OC)c(/C=N/OC(=O)Nc2ccc(Cl)cc2)c1,·,-26.5,·,4175,3.5,·,·
O=c1c2ccccc2nc2n1C(CSCc1ccc(Cl)cc1Cl)CS2 (configuration not stated),25.1,-12.3,17.2,4344,1.7,·,·
CC(C)c1cc(C(=O)N2CCN(C(c3ccccc3)c3ccccc3)CC2)no1,-8.4,-18.1,14.5,2622,-11.1,18.3,10.4
Cc1csc(SCC(=O)NCc2ccccc2)n1,13.3,-11.7,6.0,4441,-0.5,-9.4,1.1
Cc1ccc(S(=O)(=O)N(C)Cc2ccc(C(=O)N/N=C/c3ccc(OC(F)F)cc3OC(F)F)cc2)cc1,·,-18.1,·,2540,15.5,·,·
Cc1cc(NN=Cc2ccc(O)cc2O)nc(-n2nc(C)cc2C)n1,3.2,·,-10.2,·,·,10.5,10.1
O=C(Nc1ccc(Br)cc1)c1cccc(S(=O)(=O)Nc2cnc3ccccc3c2)c1,6.1,-7.2,14.2,5968,4.4,7.8,7.0
COc1ccc(CCNC(=O)CCCC(=O)n2nc(C)c3ccccc32)cc1OC,7.0,4.0,6.0,3994,0.7,-0.3,-0.8
Cc1cc(C)cc(NC(=O)CCN2CCOCC2)c1,2.5,-9.7,4.4,3316,1.5,2.7,6.5
COc1ccc(CNCc2cccn2C)cc1,0.2,-16.3,-0.2,3701,3.5,1.3,-0.5
O=C(NC(Cc1ccccc1)C(=O)N1CCN(S(=O)(=O)c2ccccc2)CC1)c1ccccc1 (configuration not stated),4.5,-11.1,5.7,4175,7.2,-4.9,-4.4
COc1cccc(CN2CCNC(=O)C2CC(=O)N(C)Cc2nc(C)cs2)c1OC (configuration not stated),3.8,0.9,2.5,4757,5.4,1.9,6.9
Cc1ccc(/C=C2\C(=O)Nc3ccccc32)o1,59.6,-6.0,100.3*,1881,·,-4.4,-7.4
CC(=NNc1cc(Cl)nc(C)n1)c1ccc(Cl)c(Cl)c1,-2.2,·,-6.6,·,·,-4.6,-4.9

# Some of the entries so far, bar-delimited:
Structure | Sa RN4220 lethal | PrP UTR inh | ugtP null kill | Autofluor counter | BJeLR viability | Mtb hypoxia inh | Mtb hypoxia inh growth
O=C(NCc1cccnc1)c1cc(Sc2ccc(F)cc2F)nc2ccccc12 | 2.8 | -9.9 | 19.4 | 2487 | -5.8 | 11.4 | 11.7
CC(C)(C)NC(=O)CCCSc1nc2ccccc2s1 | 3.5 | -68.9 | 3.1 | 4684 | 11.1 | 12.5 | 13.3
NC(=O)CC(NC(=O)Cc1cccc2ccccc12)c1ccc(NCCc2ccccc2F)c([N+](=O)[O-])c1 (configuration not stated) | 4.3 | -0.2 | 6.6 | 3951 | -11.0 | 4.1 | 4.0
CCn1nc(NS(=O)(=O)c2ccc([N+](=O)[O-])cc2)c2cc3ccc(C)cc3nc21 | 1.8 | 2.7 | -3.9 | 4930 | 2.9 | 8.5 | -0.1

# (list continues)
SMILES,Sa RN4220 lethal,PrP UTR inh,ugtP null kill,Autofluor counter,BJeLR viability,Mtb hypoxia inh,Mtb hypoxia inh growth
Cc1c(C(=O)N(Cc2cccc(Br)c2)C2CCS(=O)(=O)C2)oc2ccc(F)cc12 (configuration not stated),0.1,-0.4,-7.5,5769,-8.3,-0.4,6.6
COc1ccc(NC(=O)NC(=O)c2cc(OCC(F)(F)F)ccc2OCC(F)(F)F)cc1,-0.7,-9.9,-15.3,3848,4.8,-13.6,-6.0
Cc1cc2c(cc(C(=O)O)n2C)s1,11.3,1.8,-1.6,3172,-3.8,-10.0,11.8
Cc1ccc(N(CC(=O)NCc2ccc3c(c2)OCO3)C(=O)CCC(=O)Nc2ccccn2)cc1,3.8,3.1,1.0,3138,1.3,5.7,-3.7
O=C1CCC/C(=N\NC(=O)COc2ccc(Cl)cc2)C1,·,-15.3,·,4156,11.2,·,·
Cc1ccc(OC(=O)c2ccc(Br)o2)cc1,-0.1,-11.4,0.8,2277,5.3,·,·
Cc1ccc2c(c1)cc(CN(Cc1cccnc1)C(=O)NCc1ccccc1)c1nnnn12,5.9,-5.4,9.0,4225,-4.5,8.0,19.5
COc1cc(CCC(=O)OCC(=O)NCc2ccccc2)cc(OC)c1OC,3.4,-22.2,2.8,3466,-2.2,-3.5,-6.4
CC(C)(C)c1cccc(Cn2nnc3ccccc32)c1O,-4.8,-1.1,-11.1,2865,-7.6,11.3,12.1
CCOc1cc(CNc2ccc3c(c2)OCCO3)cc(Br)c1OCC(N)=O,-1.5,-14.3,15.8,7248,8.0,6.7,0.8
COc1cccc2cc(C(=O)NCc3ccccc3Br)c(=O)oc12,3.8,-36.3,1.7,5539,-7.4,10.4,4.4
Cc1ccc(OCCC(=O)OCC(=O)N2CCN(S(=O)(=O)c3ccc(Cl)cc3)CC2)cc1,3.1,-6.4,6.4,?,-0.2,1.9,2.4
CCOc1cc(NC(=S)NCCCN2CCOCC2)c(OCC)cc1NC(=O)CC(C)C,1.8,-5.9,-9.0,22374*,3.5,-2.9,7.6
CC(OC(=O)Cc1n[nH]c(=O)c2ccccc12)C(=O)Nc1ccc(F)cc1 (configuration not stated),2.5,-74.2,9.0,·,2.4,-3.9,5.4
CC(=O)c1cn(C)c(=O)n(C)c1=O,3.2,-24.2,11.6,2604,6.9,6.6,4.8
CN(C)NC(=S)NC1CC2CCC1C2 (configuration not stated),6.3,-22.4,1.2,3796,-1.9,12.6,-1.5
Cc1onc(-c2ccccc2)c1C(=O)OCC(=O)Nc1cc(S(=O)(=O)N2CCOCC2)ccc1Cl,-2.8,-7.9,-11.1,4351,8.5,6.5,1.0
O=C(NN=Cc1cn(-c2cccs2)nc1-c1ccccc1)c1ccccc1Br,11.0,·,26.6,·,·,-5.7,7.4
OC(COc1ccc(OCC(O)CN2CCN(Cc3ccccc3)CC2)cc1)CN1CCN(Cc2ccccc2)CC1 (configuration not stated),0.3,·,-5.2,·,6.6,-2.3,-2.2
CCC(=O)NC(=Nc1nc2ccccc2s1)NC(=O)CC,4.7,-93.8,-4.4,2554,-1.4,0.6,-3.2

# In the list so far, four have a thiophene ring, fused or not:
SMILES,Sa RN4220 lethal,PrP UTR inh,ugtP null kill,Autofluor counter,BJeLR viability,Mtb hypoxia inh,Mtb hypoxia inh growth
CC1CCc2c(sc3ncn(Cc4ccc(C(=O)O)cc4)c(=O)c23)C1 (configuration not stated),6.0,-14.1,7.1,2485,3.0,2.7,9.0
Nc1nnc(SCc2nc3scc(-c4ccccc4)c3c(=O)[nH]2)s1,3.5,-16.0,6.7,5736,9.8,1.7,5.4
Cc1cc2c(cc(C(=O)O)n2C)s1,11.3,1.8,-1.6,3172,-3.8,-10.0,11.8
O=C(NN=Cc1cn(-c2cccs2)nc1-c1ccccc1)c1ccccc1Br,11.0,·,26.6,·,·,-5.7,7.4

# (further entries)
SMILES,Sa RN4220 lethal,PrP UTR inh,ugtP null kill,Autofluor counter,BJeLR viability,Mtb hypoxia inh,Mtb hypoxia inh growth
COc1ccc(N/C=C\C(=O)c2ccc(Br)cc2)cc1OC,9.2,-56.2,5.4,2432,6.8,11.9,8.8
CCOC(=O)C1(Cc2cccc(F)c2)CCN(C(=O)COC)CC1,3.3,-2.7,9.5,3845,-0.2,5.3,3.5
Cc1ccc2nc(NC(=O)C3CCN(S(=O)(=O)c4cc([N+](=O)[O-])ccc4Cl)CC3)sc2c1,7.3,-32.2,-23.1,4259,18.1,22.7,27.9
CN(C)C(=S)NC(C)(C)C,2.0,-24.6,-4.7,4237,-8.2,4.7,13.9
Cc1cc(C)n(C(=O)C(C#N)=CN(C)C)n1,3.6,·,-5.0,·,·,1.5,6.5
Cn1c(C(=O)OCC(=O)NCc2cccs2)cc2sccc21,-1.4,-18.4,4.4,6948,8.3,-0.1,-9.4
C#CCn1cc(Cl)cc(C(=O)Nc2ccccc2)c1=O,6.9,-26.4,5.5,3771,-3.8,1.7,-0.8
CCC(C)(C)n1nnnc1C(c1ccc(C)cc1)N1CCN(Cc2ccc3c(c2)OCO3)CC1 (configuration not stated),4.6,-23.4,14.9,8309,-8.8,12.5,22.5
